GIRK2 activ – activators of human GIRK2 potassium channels; calls only for hits at 25 µM; HEK293-GIRK2 thallium flux, Thallos fluorescence; actives 0.05% (n = 63,000); AID 1259325;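 active means among the strongest 0.2% of first-round signals and kept after retests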;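 further: first round at about 10 µM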
Target sequence (P48051 whole entry, looked up): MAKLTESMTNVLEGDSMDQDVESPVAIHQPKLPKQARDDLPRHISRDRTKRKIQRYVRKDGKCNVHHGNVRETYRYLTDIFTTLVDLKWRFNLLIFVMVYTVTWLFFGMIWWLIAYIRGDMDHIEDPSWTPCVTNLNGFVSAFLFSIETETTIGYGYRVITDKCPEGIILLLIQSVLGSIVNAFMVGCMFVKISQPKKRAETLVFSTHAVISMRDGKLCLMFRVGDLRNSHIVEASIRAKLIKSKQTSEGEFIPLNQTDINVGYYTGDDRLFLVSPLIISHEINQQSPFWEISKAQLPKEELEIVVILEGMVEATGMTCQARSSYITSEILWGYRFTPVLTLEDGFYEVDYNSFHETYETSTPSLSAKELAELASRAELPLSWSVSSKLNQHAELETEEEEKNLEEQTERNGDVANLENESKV
Calls only; i = inactive. Not all compounds are listed; the hit share may differ from the screen's.

SMILES | GIRK2 activ
COc1ccc2c(c1)O/C(=C\c1ccc(OC)c(OC)c1OC)C2=O | i
COc1cc(Cl)c(C)cc1NC(=O)CSc1nnc2ccc(C(=O)Nc3cccc(F)c3)cn12 | i
Cc1ccc(NS(=O)(=O)c2ccc(N3C(=O)CCS3(=O)=O)cc2)cc1Cl | i
CSc1ccccc1C(=O)NCC(O)C1CCCCC1 (centres undefined) | i
O=C(Nc1cccc(F)c1)c1ccc2nnsc2c1 | i
Cc1cc(S(=O)(=O)N2CCCC(c3nnc(C(F)(F)F)o3)C2)c(Cl)cc1Cl (centres undefined) | i
COC(=O)c1ccc(C2NC(=O)N(C)C(C)=C2C(=O)OCCc2ccccc2)cc1 (centres undefined) | i
O=C(CCS(=O)(=O)Cc1ccccc1)Nc1nnc(-c2ccccc2Cl)o1 | i
CCOc1nc2ccccc2nc1NS(=O)(=O)c1ccc(Cl)cc1 | i
CC(C)OCCCNC(=O)c1nnn(-c2ccccc2Cl)c1-c1cccnc1 | i
CCOc1cccc2cc(C(=O)Nc3ccc(Cl)c(Cl)c3)c(=O)oc12 | i
Cc1cc2ncn(CC(O)CN(C)c3ccccc3)c2cc1C (centres undefined) | i
CCCCc1ccc(N/C=C(/C#N)S(=O)(=O)c2ccc(OC)cc2)cc1 | i
COc1cccc(C(=O)Nc2ccc(-n3nnc(C(=O)N(C)C)n3)cc2)c1OC | i
COCCCNC(=O)C1CCCN(c2nc3c(-c4ccccc4)csc3c(=O)[nH]2)C1 (centres undefined) | i
COc1ccc(C(=O)NCCS(=O)(=O)N2CCN(c3ccccc3)CC2)c(OC)c1 | i
O=C(NCC1CCN(S(=O)(=O)c2cccnc2)CC1)c1cc2ccccc2oc1=O | i
CN1C(=O)N(CC(=O)NCCc2ccccc2)C(=O)C12CCCCC2 | i
Cc1nc2sc(C)c(C)n2c(=O)c1NC(=O)Cc1cccs1 | i
COc1ccc(NC(=O)CSc2nccnc2N2CCN(c3cccc(C)c3C)CC2)c(OC)c1 | i
Cc1cccc(N2CCN(S(=O)(=O)CCCNC(=O)COc3ccccc3F)CC2)c1 | i
CCOc1ccc(-c2noc(-c3nnn(-c4cccc(OC)c4)c3N)n2)cc1 | i
Cn1c(=O)c(Oc2ccc(F)cc2F)cc2cnc(NC(C)(C)CO)nc21 | i
Cc1ccc(CSc2nnc3c(S(=O)(=O)N4CCN(c5ccc(F)cc5)CC4)cccn23)cc1 | i
O=C(c1cc2n(n1)CCCO2)N1CCN(C(=O)c2ccco2)CC1 | i
COc1cc(/C=C2\SC(=S)N(c3ccc(O)cc3)C2=O)cc(OC)c1OC | i
CCC(C)COC(=O)C(C#N)c1nc2ccccc2nc1N1CCCCC1 (centres undefined) | i
C=CCNC(=O)Nc1nnc(-c2cccc(SC)c2)o1 | i
O=C1CCSCC(C(=O)Nc2ccc3c(c2)OCCO3)N1 (centres undefined) | i
COc1ccc(-c2c(C)c3ccc4c(c3oc2=O)CN(CCN2CCOCC2)CO4)cc1OC | i
COc1ccc(CCNc2oc(-c3ccc(S(=O)(=O)N4CCOCC4)cc3)nc2C#N)cc1 | i
COCCCn1c(SCc2nc(-c3ccc(Cl)cc3)oc2C)nc2ccccc2c1=O | i
CC(c1ccccc1)N1C(=O)C2C(C1=O)C1(C)C=CC2(C)O1 (centres undefined) | i
CCOC(=O)CN1CCN(c2nc3c(c(=O)[nH]c(=O)n3C)n2CCCc2ccccc2)CC1 | i
O=C(NCc1ccco1)c1ccc(-c2cc(C(F)(F)F)ccc2Cl)o1 | i
O=S(=O)(c1ccc(Cl)s1)N1CCC(CSCc2ccco2)CC1 | i
O=C(NC1CCN(c2ccc(-c3ccccc3Cl)nn2)CC1)c1ccc[nH]c1=O | i
COc1nn(C)cc1C(=O)NCc1cc(C2CC2)n(C)n1 | i
O=C(NCCC(O)c1cccc2ccccc12)c1cnccn1 (centres undefined) | i
COc1ccc(NC(=O)Cn2cnc3c(sc4nc(C)cc(-c5ccccc5)c43)c2=O)c(OC)c1 | i
CC(=O)c1ccc(NC(=O)CSc2nccn3nc(-c4ccccc4)cc23)cc1 | i
O=C(Cc1ccccc1)Nc1cnc(Oc2ccccc2F)nc1 | i
Cc1nnc(C2CCCN(C(=O)CCc3c(C)noc3C)C2)s1 (centres undefined) | i
CCCCNC(=O)c1cccc(-n2ccnc2SCC(=O)Nc2cc(OC)ccc2OC)c1 | i
Cc1nc(-c2nnc(NC(=O)c3cccc(N4C(=O)CCC4=O)c3)o2)cs1 | i
COc1cccc(N2CCN(C(=O)c3snc4c(=O)n(CC(C)C)c(=O)[nH]c34)CC2)c1 | i
O=c1c2c(CO)c(-c3ccc(F)cc3)nn2ccn1Cc1cccc(C(F)(F)F)c1 | i
CCc1cccc(C)c1NC(=O)Cn1cnc(-c2noc(-c3cccc(F)c3)n2)c1 | i
CC(C)(Oc1ccc(Cl)cc1)C(=O)N1CCN(Cc2nc(C3CC3)cs2)CC1 | i
CCOC(=O)c1oc2cc(OCC#N)ccc2c(=O)c1-c1ccc(Br)cc1 | i

(list continues)
SMILES | GIRK2 activ
O=C(N1CCN(C2=NN=C(c3cccs3)CS2)CC1)C1(c2cccs2)CCCC1 | i
Cc1ccc(C(=O)N2CCC3(CC2)CC(=O)c2ccccc2O3)cc1C | i
CCOC(=O)N1CCN(c2nc3cc(C(=O)OC)ccc3c(=O)n2Cc2ccc(F)cc2)CC1 | i
COc1coc(C(=O)NCc2ccccc2)cc1=O | i
O=C(NCC1(c2ccccc2)CCOCC1)Nc1cccs1 | i
CCOC(=O)c1c(NC(=O)c2ccc3ncsc3c2)sc(C)c1C | i
CN(CCCC(=O)NCc1cccnc1)S(=O)(=O)c1ccc2c(c1)C(=O)c1ccccc1C2=O | i
Cc1ccc(NC(=O)Cn2nc3cc(C)nc(N4CCCC4)n3c2=O)cc1 | i
Cc1cc(C(=O)N2CC(C(=O)NCCC(c3ccccc3)c3ccccc3)C2)no1 | i
CCCC(=O)Nc1ccc(-c2ccc(=O)n(C)n2)cc1 | i
COc1cc(NC(=O)CSc2cc(N3CCCCC3)ncn2)cc(OC)c1 | i
O=C(NCCCn1ccnc1-c1ccccc1)c1ccco1 | i
COc1ccccc1-c1cc(C(=O)NC2CC(=O)N(C3CC3)C2)[nH]n1 (centres undefined) | i
CC(C)(C)S(=O)(=O)c1ccc2nn(CC(=O)Nc3ccc(Br)cc3)c(=O)n2n1 | i
O=C(CSc1nnc(CCc2nc3ccccc3s2)o1)Nc1nc(-c2ccco2)cs1 | i
Cc1ccc(Cl)cc1-n1nnc(C(=O)Nc2ccccc2F)c1C | i
O=C1/C(=C/c2cccs2)Oc2cc(OS(=O)(=O)c3ccc(F)cc3)ccc21 | i
COc1ccc(-c2noc(-c3nnn(-c4cc(OC)ccc4OC)c3N)n2)cc1 | i
O=C(Nc1ccc(Br)cc1F)c1ccc(-n2ccnc2)nn1 | i
NC(=O)CSc1nnc(N2CCN(C(=O)c3ccc(F)cc3F)CC2)s1 | i
COc1cn(C)c(C(=O)Nc2ccc(OC(F)(F)F)cc2)cc1=O | i
COc1ccc(C)cc1S(=O)(=O)Nc1ccc2c(c1)N(S(=O)(=O)c1ccccc1)CCC2 | i
O=C(NCCN1CCN(C(=O)NCc2ccc(F)cc2)CC1)c1ccsc1 | i
COc1ccccc1OCC(=O)NCCN1CCN(c2ccc(Cl)cc2)CC1 | i
Cc1nnsc1C(=O)Nc1cnc(-n2nc(C)c(C)c2C)nc1 | i
CC(=O)NS(=O)(=O)c1ccc(NC(=O)CN2C(=O)c3ccccc3S2(=O)=O)cc1 | i
COc1ccc(OC)c(CNC(=O)c2c(O)c3cccnc3[nH]c2=O)c1 | i
CCOC(=O)N1CCC(NC(=O)c2cn(-c3ccc(Cl)cc3)nn2)CC1 | i
Cc1noc(C)c1S(=O)(=O)N1CCC(Oc2ccccn2)CC1 | i
Cc1ccc(N2C(=O)C3N=NN(CC(=O)Nc4ccccc4Cl)C3C2=O)cc1C (centres undefined) | i
Cc1ccc(S(=O)(=O)NC(=O)NN2CCCCCC2)cc1 | i
O=C(NCC(Cc1cccc(F)c1)N1CCCC1=O)C1CC=CCC1 (centres undefined) | i
Cc1[nH]c(=O)cc2cc3c(cc12)c1ccccc1n3C | i
O=C(CCn1cnc2c([nH]c3ccccc32)c1=O)NC1CCCCC1 | i
CCc1nccn1CC1CCN(C(=O)c2cc3cccc(OC)c3oc2=O)CC1 | i
CCOC(=O)c1ccc(Oc2c(-c3ccc(OCC)cc3O)n[nH]c2C)cc1 | i
CCn1c(=O)c2ccccc2n(Cc2nc(-c3cccc(OC)c3)no2)c1=O | i
Cn1c(=O)[nH]c(=O)c2c1nc1[nH]c(C(C)(C)C)cn12 | i
CC(=O)N1CCc2c(sc(NC(=O)/C=C/c3ccccc3Cl)c2-c2nc3ccccc3s2)C1 | i
COc1cc(Nc2c(C(=O)N3CCCCCC3)cnc3nc(C)ccc23)cc(OC)c1 | i
COc1ccc(CC(C)(O)CNC(=O)c2ccccc2C(F)(F)F)cc1 (centres undefined) | i
CCOC(=O)c1cn(CC(=O)Nc2ccc(CC)cc2)c2nc(C)ccc2c1=O | i
CC(C)NC(=O)CSc1nnc(N2CCN(C(=O)Cc3ccc(Cl)cc3)CC2)s1 | i
O=C(/C=C/c1cccs1)Nc1cc(N2CCOCC2)ncn1 | i
COC(=O)c1cccc(Nc2ncnc3sc4c(c23)CCC4)c1 | i
CCSc1ccccc1C(=O)Nc1ccc(N2CCCS2(=O)=O)cc1 | i
Cc1ccc(N2CCCn3c2nc2c3c(=O)n(CC(=O)c3ccccc3)c(=O)n2C)cc1C | i
Cc1nc2ccc(NC(=O)CCc3ccccc3)cc2c(=O)n1-c1ccccc1 | i
Cc1noc(C)c1S(=O)(=O)N1CCN(CC(O)C2CC2)CC1 (centres undefined) | i
COc1ccc(NC(=O)Cn2ccn(-c3ccc(OC)cc3)c2=O)cc1 | i

Later entries:
SMILES | GIRK2 activ
O=C(c1cccs1)c1ccc(OCCCO)c(Cl)c1Cl | i
COc1ccc(N(CC(O)CNC(C)C(=O)O)S(=O)(=O)c2ccc(C)cc2)cc1 (centres undefined) | i
COc1ccc(NC(=O)NNC(=O)c2cccn(Cc3cccc(F)c3)c2=O)c(OC)c1 | i
Cc1cc(CCNC(=O)c2ccc(OC(F)(F)F)cc2)on1 | i
O=C(c1cccs1)N1CCN(Cc2nnnn2-c2ccc(F)cc2)CC1 | i
O=C(CN1CC(c2nc(C3CC3)no2)C1)Nc1ccc2c(c1)OCCO2 | i
Cc1cc(C(=O)NCCC(O)c2cc(C)oc2C)no1 (centres undefined) | i
Cc1[nH]c(=S)[nH]c(=O)c1CCO | i
CC(=O)c1ccc(NC(=O)Cn2nc3ccc(Sc4ccccc4)nn3c2=O)cc1 | i
COc1ccc(NC(=O)Nc2nc(CCC(=O)Nc3nccs3)cs2)cc1 | i

Laid out differently: results already given.
GIRK2 activ | Structure
i | COc1ccc(CC(C)(O)CNC(=O)c2ccccc2C(F)(F)F)cc1 (centres undefined)
i | CCOC(=O)c1cn(CC(=O)Nc2ccc(CC)cc2)c2nc(C)ccc2c1=O
i | CC(C)NC(=O)CSc1nnc(N2CCN(C(=O)Cc3ccc(Cl)cc3)CC2)s1
i | O=C(/C=C/c1cccs1)Nc1cc(N2CCOCC2)ncn1
i | COC(=O)c1cccc(Nc2ncnc3sc4c(c23)CCC4)c1
i | CCSc1ccccc1C(=O)Nc1ccc(N2CCCS2(=O)=O)cc1
i | Cc1ccc(N2CCCn3c2nc2c3c(=O)n(CC(=O)c3ccccc3)c(=O)n2C)cc1C
i | Cc1nc2ccc(NC(=O)CCc3ccccc3)cc2c(=O)n1-c1ccccc1
i | Cc1noc(C)c1S(=O)(=O)N1CCN(CC(O)C2CC2)CC1 (centres undefined)
i | COc1ccc(NC(=O)Cn2ccn(-c3ccc(OC)cc3)c2=O)cc1
i | O=C(c1cccs1)c1ccc(OCCCO)c(Cl)c1Cl
i | COc1ccc(N(CC(O)CNC(C)C(=O)O)S(=O)(=O)c2ccc(C)cc2)cc1 (centres undefined)
i | COc1ccc(NC(=O)NNC(=O)c2cccn(Cc3cccc(F)c3)c2=O)c(OC)c1
i | Cc1cc(CCNC(=O)c2ccc(OC(F)(F)F)cc2)on1
i | O=C(c1cccs1)N1CCN(Cc2nnnn2-c2ccc(F)cc2)CC1
i | O=C(CN1CC(c2nc(C3CC3)no2)C1)Nc1ccc2c(c1)OCCO2
i | Cc1cc(C(=O)NCCC(O)c2cc(C)oc2C)no1 (centres undefined)

(more compounds)
SMILES | GIRK2 activ
COc1ncccc1C(=O)NCCc1cc(C)no1 | i
O=C(COc1ccccc1F)NCC1CCN(S(=O)(=O)c2cccnc2)CC1 | i
CN(C)CCn1c2c(c(=S)[nH]c1=O)CCC2 | i
COc1ccc(-c2cc3nc(C)cc(N4CCN(CCO)CC4)n3n2)cc1OC | i
O=C(Cc1c[nH]c2ccccc12)N1CCC(Oc2ncccc2Cl)CC1 | i
CCC(C(=O)NCc1ncc(-c2ccccc2)[nH]1)c1ccccc1 (centres undefined) | i
CCC(=O)OCC(=O)[C@@]1(OC(=O)CC)[C@@H](C)C[C@H]2[C@@H]3CCC4=CC(=O)C=C[C@]4(C)[C@@]3(Cl)[C@@H](O)C[C@@]21C | i
O=C(c1cccc(Br)c1)N1CCC(Oc2ccccn2)CC1 | i
Cc1cc(C)nc(N2CCN(c3ncnc4c3cnn4Cc3ccccc3Cl)CC2)n1 | i
C=C(C)Cn1c(=O)c2c(nc3n(-c4ccc(OC)cc4OC)c(C)c(C)n23)n(C)c1=O | i

Two of the compounds above, with values ahead of the structure.
GIRK2 activ | Structure
i | O=C(COc1ccccc1F)NCC1CCN(S(=O)(=O)c2cccnc2)CC1
i | CN(C)CCn1c2c(c(=S)[nH]c1=O)CCC2

The list goes on.
SMILES | GIRK2 activ
CC(C)(C)OC(=O)Nc1cccc2[nH]ccc12 | i
Cc1nnc(-c2cccc(-c3ccc(C(=O)NCC4CC4)cc3)c2)o1 | i
NC(=O)C1CCN(c2ncc3c(=O)n(Cc4ccccc4F)c(=O)[nH]c3n2)CC1 | i
O=c1ccc(-n2cccn2)nn1CCNS(=O)(=O)c1cc(C(F)(F)F)ccc1Cl | i
Cc1ccc(CNC(=O)Cn2nc3c(SC4CCCCC4)nccn3c2=O)cc1 | i
Cc1cc(C)c(NC(=O)COc2cc(C)nc(N3CCCCC3)n2)c(C)c1 | i
O=C(NCc1ccccc1F)C1COCC(=O)N1Cc1ccccc1 (centres undefined) | i
NS(=O)(=O)c1ccc(C(=O)N2CCN(c3cc(Nc4ccccn4)ncn3)CC2)cc1 | i
COc1ccc2c(c1)c(CC(=O)NCCCNC(=O)c1ccc(F)cc1)c(C)n2C(=O)c1ccc(Cl)cc1 | i

Assay outcomes: PubChem, Vanderbilt University
